Assay outcomes from PubChem.
RanGTP-Imp inh: disruptors of Ran-importin-beta complex formation – biochemical, FRET, CFP-Ran, YFP-importin-beta, homogeneous, primary screen; cell-free CFP-Ran/YFP-importin-beta FRET ratio; 1.1% of 300,000 active; AID 2216; inhibition, % (test concentration not listed);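 active = most replicates above 15%; inconclusive = exactly half above 15%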;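 note: 0% = DMSO wells and 100% = Ran loaded with GDP instead of GTP; wells of about 40 µL received 100 nL stock; the first replicate is given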
Vif TR-FRET: inhibitors of Vif binding to APOBEC3G peptide, primary screen, biochemical, TR-FRET, GST-Vif 1-94, biotin-A3G peptide, dose response retest (AID 1117319); TR-FRET GST-Vif / biotin-A3G peptide binding; higher % means a stronger effect; test concentration not given here; strong numbers were not always called active; one-dose inhibition, %; IC50 in µM for titrated hits; 0.57% of 260,000 active;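 active = above the screen mean plus three standard deviations and confirmed in dose response; inconclusive = results disagree or hit not tested in dose response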;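 note: Vif residues 1-94 fused to GST binding biotinylated APOBEC3G peptide 110-148; 0% = full assay without inhibitor and 100% = GST in place of GST-Vif; retest series ran down from 100 µM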
AF4-AF9 inh: inhibitors of human MLL-AF4/AF9 interaction | 0.47% of 350,000 active | P42568 | AlphaScreen, biotin-AF4 peptide binding to FLAG-AF9 | AID 651704 | inhibition, % at 10 µM;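 active = every replicate reaching a set inhibition limit, whatever the replicate mean, cut at about 25% in these data; inconclusive = mean inhibition reaches that limit but some replicates miss it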;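 note: 0% = plate neutral control median and 100% = total signal loss; the record names both 10 and 1 µM as test concentration; the first replicate is given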
Ecoli growth: inhibitors of Escherichia coli growth. OD600, 23 h; hits give low values. OD600 absorbance (test concentration not listed). 0.21% of 330,000 active;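 active = OD600 absorbance below the run mean of sample wells minus 3.6 SD, in any replicate, cut at about 0.56 in these data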;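 note: stock transfer was 300 nL into about 60 µL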
HNF4A DNA FP: change in binding of human HNF4 alpha to DNA | HNF4a-FITC DNA binding, fluorescence polarization, 1 h | 0.3% of 360,000 active | P41235 | AID 1224865 | activity change, % at 10 µM; in the data active = activity change above about 30%, passing the limit was not always enough;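 note: controls were the assay level and a saturating level of protein; the project sought stronger binding though the title names inhibitors; some compounds called inactive have numbers as strong as hits; positive values seem to mean higher polarization but the record does not say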
Target sequence (P41235 whole entry, looked up): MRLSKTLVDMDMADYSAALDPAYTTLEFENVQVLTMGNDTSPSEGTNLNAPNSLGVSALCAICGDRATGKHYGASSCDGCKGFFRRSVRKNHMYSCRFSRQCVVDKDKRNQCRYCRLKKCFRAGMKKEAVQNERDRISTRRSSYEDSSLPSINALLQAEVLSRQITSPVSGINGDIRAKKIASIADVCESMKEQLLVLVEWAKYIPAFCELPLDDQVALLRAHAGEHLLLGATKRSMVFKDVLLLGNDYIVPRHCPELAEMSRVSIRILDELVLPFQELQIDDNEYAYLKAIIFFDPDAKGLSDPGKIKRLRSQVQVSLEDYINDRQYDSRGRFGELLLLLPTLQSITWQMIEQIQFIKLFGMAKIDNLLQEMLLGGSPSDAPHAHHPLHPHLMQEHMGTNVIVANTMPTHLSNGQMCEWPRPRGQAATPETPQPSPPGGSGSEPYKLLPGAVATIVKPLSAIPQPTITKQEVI
UCH37 inh: human UCH37 deubiquitinating enzyme inhibition. Q9Y5K5. purified proteasome/UCH37, Ub-AMC cleavage fluorescence. inhibition, % (test concentration not listed). 0.33% of 330,000 active;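 active = mean of two replicates above 20%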;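 note: 0% = compound-free wells with enzyme and 100% = wells lacking proteasome; stock transfer was 100 nL into about 20 µL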
Target sequence (Q9Y5K5 whole entry, looked up): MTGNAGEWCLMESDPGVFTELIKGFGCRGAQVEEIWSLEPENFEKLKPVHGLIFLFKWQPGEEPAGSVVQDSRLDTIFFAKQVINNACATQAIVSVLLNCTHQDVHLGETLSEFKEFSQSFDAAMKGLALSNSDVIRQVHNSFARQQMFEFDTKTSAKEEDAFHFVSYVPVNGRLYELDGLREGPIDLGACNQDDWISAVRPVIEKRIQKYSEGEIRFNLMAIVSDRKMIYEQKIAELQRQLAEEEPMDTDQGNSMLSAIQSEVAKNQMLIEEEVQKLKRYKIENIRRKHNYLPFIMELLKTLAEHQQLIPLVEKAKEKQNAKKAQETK
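System: Proteasome-associated human UCH37 deubiquitinase; Input: 0.15 nM proteasome in added enzyme buffer; Also added: Ub-AMC substrate from 1 µM stock; Incubation: 30 min compound-proteasome preincubation then 25 min substrate reaction, room temperature; Detection: fluorescence, ex 355 nm, em 460 nm; Read-out: % inhibition of Ub-AMC cleavage fluorescence; Benchmarks: no-proteasome and no-compound wells.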
FGF22 binding: FGF22 (human) thermal shift binding. Q9HCT0. recombinant FGF22 thermal shift, SYPRO orange fluorescence; percent of sucrose octasulfate shift, DMSO zero. calls only at 9.99 µM. 1.5% of 340,000 active. AID 651658;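 active = melting point raised past a set limit in the mean and every replicate; inconclusive = no clear call; three in four hits are not shown here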
Target sequence (Q9HCT0 whole entry, looked up): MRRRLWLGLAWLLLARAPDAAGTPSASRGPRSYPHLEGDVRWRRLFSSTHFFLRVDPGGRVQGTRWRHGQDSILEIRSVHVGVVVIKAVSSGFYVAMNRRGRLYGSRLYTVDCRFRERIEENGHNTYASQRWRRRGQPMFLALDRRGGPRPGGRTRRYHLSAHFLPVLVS
Starred values were filed as active, the others as inactive; i = inactive; ? = inconclusive; / = no result given; + = active, no number. Some of the compounds tested (hit frequency here may not be typical).

RanGTP-Imp inh	Vif TR-FRET	AF4-AF9 inh	Ecoli growth	HNF4A DNA FP	UCH37 inh	FGF22 binding	SMILES
0.8	-1%	/	0.73	-0.5	-0.3	/	CC(C)NC(=O)C1CC(=O)N(C(C)c2ccccc2)C1 (stereo unspecified)
1.9	/	-0.3	0.65	4.0	3.4	i	COc1ccc(CCN2CC(C(=O)Nc3cccc(C(C)=O)c3)CC2=O)cc1OC (stereo unspecified)
5.4	-13%	0.5	0.68	-1.4	3.3	i	COc1cc(/C=C(\NC(=O)c2ccccc2)C(=O)Nc2nccs2)ccc1OC(C)=O
5.2	2%	/	0.67	-2.5	0.7	/	CC(C)CNS(=O)(=O)c1cc(C(=O)N2CCOCC2)c(Cl)cc1Cl
7.2	2%	/	0.67	1.4	0.5	/	CC(C)CNC(=S)NC(=O)c1ccc(F)cc1
/	/	0.8	/	-1.7	/	i	CCCCNC(=O)c1nc(-c2ccc(C(F)(F)F)cc2)oc1-c1ccccc1
17*	-8%	0.6	0.71	-2.1	6.2	/	Cc1cccc(NS(=O)(=O)c2ccc(C(=O)N3CCCCCC3)cc2)c1C
4.5	-1%	/	0.68	-2.1	4.9	/	COc1ccc(S(=O)(=O)n2nc(OC(=O)C3CCCCC3)cc2N)cc1
/	/	8.5	0.68	-3.8	-0.3	i	O=c1c2ccccc2oc2cc(-c3ccc(CN4CCOCC4)cc3)ccc12
/	-2%	0.1	0.67	-4.9	1.0	i	O=C(c1cccs1)c1ccccc1Cc1cccs1
2.2	-1%	3.9	0.72	-1.4	3.7	i	CCc1ccc(C(=O)Cn2cnc3cc([N+](=O)[O-])ccc3c2=O)cc1
0.9	15%	-1.1	0.69	1.1	3.9	i	Cc1onc(C(=O)Nc2sc3c(c2C(N)=O)CCCC3)c1[N+](=O)[O-]
-1.6	15%	/	0.71	-2.7	0.3	/	O=S1(=O)CC(O)C(Nc2ccccc2Cl)C1 (stereo unspecified)
5.6	7%	/	0.73	0.1	4.8	/	Cc1onc(-c2c(Cl)cccc2Cl)c1C(=O)NCCCN1CCOCC1
-0.1	11%	/	0.72	-0.7	3.8	/	CCC(C)(C(=O)NC1CCCC1)N(Cc1cccs1)C(=O)Cc1cccs1 (stereo unspecified)
1.9	/	1.0	0.64	-0.2	4.3	i	Cc1cc(C(F)(F)F)nc(SCCN2CCCCC2)c1C#N
-1.7	29%	/	0.65	0.4	-0.4	/	CCC1CCCCN1CCCNC(=O)C1CCC(=O)N1Cc1ccc(C)cc1 (stereo unspecified)
?	-3%	-2.6	0.74	0.7	-29	/	Cc1ccc(-c2nc(NCc3ccco3)n(C(=O)c3ccco3)n2)cc1
-6.1	11%	/	0.7	-3.9	2.2	/	CC(=O)Nc1ccc(C2(O)COc3ccccc3O2)cc1 (stereo unspecified)
3.4	4%	/	0.7	-1.1	3.7	/	Cc1ccc(CNC(=O)COc2ccc(S(=O)(=O)NC(C)C)cc2)cc1
/	5%	3.5	0.7	2.0	2.2	i	O=C(CCOc1ccccc1)Nc1ccc(Cl)c(S(=O)(=O)N2CCOCC2)c1
1.9	/	-1.8	/	2.3	/	i	Cc1ccccc1NC(=O)CSc1nnc(-c2ccccn2)o1
?	/	2.0	0.69	4.4	3.6	i	COCCN(CC1CCCN(C2Cc3ccccc3C2)C1)C(=O)CSC (stereo unspecified)
/	/	-2.2	0.69	1.9	-2.0	i	COc1ccc(-c2cn(CCO)c(CCN)n2)cc1
/	?	/	0.73	3.1	-1.3	/	Cc1ccc(NC(=O)CCN2CCN(C/C=C/c3ccccc3)CC2)cc1
-1.5	/	-16	0.68	-0.8	3.9	i	COc1ccc(CC(C)NS(=O)(=O)c2ccc3c(c2)CCN3S(C)(=O)=O)cc1OC (stereo unspecified)
-4.5	18%	4.7	0.63	4.2	6.0	i	[O-][n+]1c2c(c3c4non(O)c4ccc31)CCCC2
6.4	-3%	-1.0	0.64	-0.9	4.4	i	COc1cccc(NC(=O)NCCc2ccc(Cl)cc2)c1
5.2	/	0.3	0.67	1.4	-0.7	i	O=C(Cn1c(=O)[nH]c2ccccc2c1=O)N1CCN(Cc2ccc3c(c2)OCO3)CC1
-1.6	20%	2.0	0.68	0.2	2.5	i	Cc1ccc(-c2nnc(SCC(=O)NNC(=O)COc3ccccc3C)n2C)cc1
/	/	5.7	/	-4.4	/	i	COC(=O)[C@@]12C[C@@H](CC(=O)N3CCC(c4ccccc4)CC3)C(=O)N(CCc3ccc(OC)c(OC)c3)C1=CCC(C)(C)C2
/	/	-0.1	/	-0.9	/	i	CCOC(=O)[C@]12CCC=C1N(CCC1=CCCCC1)C(=O)[C@H](CC(=O)NCc1cccc(C(F)(F)F)c1)C2
?	-4%	/	0.76	-0.4	0.7	/	COc1ccc([N+](=O)[O-])cc1NC(=S)NC(NC(=O)Cc1ccc(OC)c(OC)c1)C(Cl)(Cl)Cl (stereo unspecified)
/	/	-7.5	0.71	2.8	29*	i	CC(C)(C)OC(=O)N1CCC(NC(=O)c2nc[nH]c2C(=O)N2CCc3ccccc3C2)CC1
-1.5	7%	/	0.71	0.4	0.0	/	CC(C)(C)n1ncc2c(=O)n(CC(=O)NCc3ccccc3Cl)cnc21
9.1	/	17	/	-2.5	/	i	COc1ccc2[nH]c(C(=O)N/N=C/c3ccc(O)cc3O)cc2c1
1.4	2%	/	/	4.2	/	/	C/C(=N\NC(=O)C1COc2ccccc2O1)c1ccc(C)o1 (stereo unspecified)
-0.6	-2%	/	0.69	4.5	0.2	/	O=C(Cc1cccs1)N(Cc1ccco1)C1(C(=O)NC2CCCCC2)CCCCC1
/	/	-0.8	0.7	1.4	4.1	i	CCCn1c(N)c(C(=O)CN(C)CC(=O)Nc2ccc(F)cc2)c(=O)[nH]c1=O
0.0	8%	/	/	0.9	/	/	Cc1ccc(S(=O)(=O)N/N=C/c2cc(Br)c(C)o2)cc1

Record cards (already shown). Screens in order: RanGTP-Imp inh | Vif TR-FRET | AF4-AF9 inh | Ecoli growth | HNF4A DNA FP | UCH37 inh | FGF22 binding
Results for C/C(=N\NC(=O)C1COc2ccccc2O1)c1ccc(C)o1 (stereo unspecified) : 1.4 | 2% | / | / | 4.2 | / | /
Results for COc1ccc([N+](=O)[O-])cc1NC(=S)NC(NC(=O)Cc1ccc(OC)c(OC)c1)C(Cl)(Cl)Cl (stereo unspecified) : ? | -4% | / | 0.76 | -0.4 | 0.7 | /
Results for O=C(Cc1cccs1)N(Cc1ccco1)C1(C(=O)NC2CCCCC2)CCCCC1 : -0.6 | -2% | / | 0.69 | 4.5 | 0.2 | /
Results for CC(C)(C)n1ncc2c(=O)n(CC(=O)NCc3ccccc3Cl)cnc21 : -1.5 | 7% | / | 0.71 | 0.4 | 0.0 | /
Results for COc1ccc2[nH]c(C(=O)N/N=C/c3ccc(O)cc3O)cc2c1 : 9.1 | / | 17 | / | -2.5 | / | i

The results go on.
RanGTP-Imp inh	Vif TR-FRET	AF4-AF9 inh	Ecoli growth	HNF4A DNA FP	UCH37 inh	FGF22 binding	SMILES
/	/	-1.0	/	2.6	/	i	CC(C)N1CCC(C)(C(=O)Nc2cccc(Oc3ccccc3)c2)C1 (stereo unspecified)
-4.0	2%	/	0.74	2.1	1.6	/	COc1cc(OC)cc(C(=O)N2CCC(n3c(C)nc4cc(F)ccc43)CC2)c1
0.4	0%	4.7	0.69	2.5	-9.2	i	CN(C)c1cccc(C(=O)NCc2ccccc2)c1
-1.4	-1%	3.8	0.69	-0.7	-0.8	i	O=C(NCc1ccncc1)c1ccc(S(=O)(=O)Nc2ccccc2)cc1
0.2	4%	2.7	0.63	-0.8	5.2	i	O=C(CSc1n[nH]c(=O)n1C1CC1)c1ccc2c(c1)OCCO2
-0.7	-3%	-3.9	0.71	3.2	-0.9	/	CCCCn1c(N)c(N(CCC(C)C)C(=O)c2cccc(-n3cnnn3)c2)c(=O)[nH]c1=O
/	/	/	0.68	-0.9	1.1	i	C1=CC2C3C=CC(C3)C2C1 (stereo unspecified)
-1.9	-3%	-0.2	0.68	-0.4	-1.0	i	COc1ccccc1-n1nnnc1SC(C)C(=O)NC1CCCC1 (stereo unspecified)
-15	0%	-1.5	0.69	2.2	0.2	i	OCCC1CN(Cc2cccn2-c2ncccn2)CCN1C1CCCC1 (stereo unspecified)
/	0%	-4.0	/	-1.3	/	i	OCC(O)C(O)CC1SCCS1 (stereo unspecified)
0.9	/	-3.4	0.64	0.0	-1.5	i	CCOc1ccccc1NC(=O)COC(=O)C1CCC1
3.3	1%	-5.1	/	2.9	12	i	COc1ccc(/C(N)=N/OC(=O)/C=C/c2ccccc2)cc1
/	/	-1.5	/	-2.3	/	i	CC(C)(C)OC(=O)N1CCC(C(=O)Nc2cccc(C(=O)NC3CC3)c2)CC1
1.8	/	-2.4	/	0.3	/	i	COc1ccccc1N1CCN(/N=C/c2ccc(O)cc2O)CC1
-1.7	-4%	-0.3	/	-1.9	/	+	N#Cc1cccc(NC(=O)CSc2nnc(-c3n[nH]c4ccccc34)o2)c1
/	/	-0.4	/	-6.4	1.0	i	O=C1OC[C@H]2CCCN2C(=O)[C@@H](CC(=O)N(CCO)Cc2ccccc2)C/C=C\CC[C@@H]1Cc1ccc(F)cc1
-0.1	2%	-1.4	0.72	-2.3	-0.7	/	Nc1nc2n(n1)C(c1ccc(Cl)cc1)CC(c1ccc(F)cc1)N2 (stereo unspecified)
-1.5	-6%	-2.1	0.68	-32	1.0	/	Cc1ccc(S(=O)(=O)NC(=S)NC2CCCCC2)cc1
/	-2%	-1.9	/	-3.8	/	i	NC(=O)C1=C(N)c2ccccc2C1c1ccccc1 (stereo unspecified)
8.7	4%	2.4	/	1.3	/	i	C/C(CC(=O)Nc1ccc(Cl)c(Cl)c1)=N\NC(=O)Cc1ccccc1
-1.5	3%	/	0.69	0.8	7.3	/	O=C(O)c1cnc2ccccc2n1
-1.3	/	-0.4	0.69	-0.9	1.8	i	Cc1nn(C)cc1S(=O)(=O)N1CCN(Cc2cccc(Cl)c2)CC1
-0.3	-7%	/	0.68	-0.7	0.4	/	CCn1c(Cc2ccc(OC)cc2)nnc1SCC(=O)NC1CCCCC1
/	-3%	/	0.71	0.6	3.0	/	COc1ccc(C2N(C(=O)CN3CCOCC3)CCN2S(=O)(=O)c2ccccc2)cc1 (stereo unspecified)
2.7	?	/	0.69	-1.7	0.1	/	O=C(N1CCCCC1)N1CCN(C(c2ccccc2)c2ccccc2)CC1
2.9	12%	12	0.7	-0.2	1.4	i	COc1ccc(NS(=O)(=O)c2cc(NC(=O)c3cccnc3Cl)ccc2N2CCCC2)cc1
0.2	/	-0.6	/	2.3	2.8	i	O=C1N[C@@H](Cc2ccccc2)C(=O)N2[C@H]1C[C@]1([C@]34C[C@H]5C(=O)N[C@@H](Cc6ccccc6)C(=O)N5[C@H]3N(S(=O)(=O)c3ccccc3)c3ccccc34)c3ccccc3N(S(=O)(=O)c3ccccc3)[C@H]21
/	4%	-0.1	/	2.8	/	i	CC(C)C(Cl)=NOC(=O)Nc1ccc(S(N)(=O)=O)cc1
4.0	3.6µM*	3.0	0.69	0.8	46*	i	O=C1C(Cl)=C(Nc2ccc3cn[nH]c3c2)C(=O)c2ccccc21
2.6	2%	5.0	0.68	-1.4	4.7	i	CCC(=O)Oc1ccc(C(=O)Nc2ccc([N+](=O)[O-])cc2)cc1
?	7%	0.2	0.7	-2.6	5.1	i	Cc1cc(C)c(NC(=O)CNC(=O)COC(=O)CNC(=O)c2ccc(Cl)cc2Cl)c(C)c1
1.1	5%	/	0.73	-0.4	3.5	/	CC(C)(C)CC(=O)NCc1ccc(F)cc1
1.5	-3%	0.4	0.68	-1.5	2.4	i	Cc1cc(NC(=S)Nc2ccc(C)c(Cl)c2)n[nH]1
-3.2	0%	4.5	/	-0.3	/	i	CCCN(CCC)Cc1c(C(=O)N/N=C/c2ccncc2)nnn1-c1nonc1N
